Assay outcomes as filed in PubChem BioAssay.
RE007 growth inh = less growth of the S. pombe RE007 Vpr strain | S. pombe RE007 Vpr strain, BacTiter-Glo ATP luminescence, 24 h; control for the full effect not named in the record | Potency, µM (series often up to 92.2 µM), inactives show at the highest dose activity change, negative = less growth | 360,000 compounds, 0.21% hits | AID 651644; active = well fitted falling curve with a large enough effect; inconclusive = small, poorly fitted or top-dose-only effect; inactive = no such curve, though single readings can be large or run the other way;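 further: on the % scale 0 is the no-effect control and ±100 the full control effect; nearly all actives have a fitted effect of over 50% in size; the assay follows cell death caused by Vpr and the record does not say whether a fall means rescue or toxicity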
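Fission yeast strain RE007, carrying one chromosomally integrated HIV-1 vpr copy, was seeded at OD 0.01 in PMG+AL medium with 23 nL pinned compound. After 24 h at 30 °C and 99% humidity, viability was read by BacTiter-Glo luminescence.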
Lassa entry inh = blocks Lassa virus binding to or entry into cells; Potency, µM (titrated, usually from 37.9 µM), for inactives: top-dose activity change, negative = inhibition, actives largely listed as inhibitors; Lassa virus pseudotype entry inhibition, cell reporter; control for the full effect not named in the record; 300,000 compounds, 1.2% hits; active means well fitted inhibition curve with a large enough effect; inconclusive means small, poorly fitted or top-dose-only effect, or effect the other way; inactive means flat fitted curve, though single readings scatter; tested in HEK293 cells; further: on the % scale 0 is the no-effect control and ±100 the full control effect; nearly all actives have a fitted effect of over 50% in size; luciferase read-out
NS1 inh = blocks influenza NS1 protein function. S. cerevisiae slowed by influenza A NS1, growth recovery by OD600. Potency, µM (titrated, usually from 46.1 µM), inactives show top-dose activity, positive = more growth. 270,000 compounds, 0.4% hits; active means well fitted rising curve with a large enough effect; inconclusive means small, poorly fitted or top-dose-only effect; inactive means no such curve, though single readings can be large or run the other way; further: nearly all actives have a fitted effect of over 50% in size
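A cell-based growth assay was used: compounds that relieve NS1-induced slow growth of budding yeast raise OD600. Assay medium was yeast nitrogen base with ammonium sulphate and -URA supplement, pH 6.0, with 2% galactose.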
Cruzain noTriton = blocks cruzain activity in detergent-free assay; P25779; purified cruzain, Z-FR-AMC fluorescence, no detergent; Potency, µM, inactives show max response, negative = inhibition, actives largely listed as inhibitors; 200,000 compounds, 2.3% hits; AID 1476;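 further: plate controls were enzyme without inhibitor for no effect and buffer without enzyme for full effect; nearly all actives have a fitted effect of over 40% in size; top concentration of the series not given in the record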
Target sequence (P25779 123-467 limits assumed): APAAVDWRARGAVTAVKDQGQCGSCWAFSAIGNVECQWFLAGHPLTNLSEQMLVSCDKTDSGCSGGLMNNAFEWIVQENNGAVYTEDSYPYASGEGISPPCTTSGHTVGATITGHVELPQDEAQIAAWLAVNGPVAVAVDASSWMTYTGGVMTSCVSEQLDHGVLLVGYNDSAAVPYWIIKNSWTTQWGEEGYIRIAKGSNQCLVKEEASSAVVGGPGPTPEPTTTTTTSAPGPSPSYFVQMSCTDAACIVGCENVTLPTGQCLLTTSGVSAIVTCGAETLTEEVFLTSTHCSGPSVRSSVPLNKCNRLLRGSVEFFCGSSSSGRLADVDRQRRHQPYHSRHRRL
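Detergent-free condition (0.00005% Triton X-100) in acetate buffer pH 5.5 with DTT. 1.5 nM enzyme and compound were pre-mixed 15 min, then 2 uM Z-FR-AMC substrate added; reaction progress from fluorescence change between first and third reads (60 s).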
StopGo reporter = FMDV 2A StopGo reporter, luciferase signal | 410,000 compounds, 1.2% hits | human cells with a luciferase reporter of 2A StopGo recoding; control for the full effect not named in the record | Potency, µM (titrated, usually from 57.9 µM), for the others: at the highest dose signal change, negative = less light; active = well fitted falling curve with a large enough effect; inconclusive = small, poorly fitted or top-dose-only effect; inactive = no such curve, though single readings can be large or run the other way; tested in HEK293T cells; further: on the % scale 0 is the no-effect control and ±100 the full control effect; nearly all actives have a fitted effect of over 45% in size; luciferase light after 4 h
MARV entry inh = inhibitors of Marburg virus binding or cell entry | Marburg virus pseudotyped entry inhibition, cell reporter; control for the full effect not named in the record; about a third of the inactives were read at about 46 µM | Potency, µM (highest dose often 37.8 µM), for the others: at the top dose activity change, negative = inhibition, most hits filed as inhibitors | 300,000 compounds, 1.8% hits | AID 540276; active = well fitted inhibition curve with a large enough effect; inconclusive = small, poorly fitted or top-dose-only effect, or effect the other way; inactive = flat fitted curve, though single readings scatter; tested in HEK293 cells; about a fifth of its hits are not listed in these tables; further: on the % scale 0 is the no-effect control and ±100 the full control effect; luciferase read-out
Cruzain inh Det = blocks cruzain activity in presence of Triton detergent | P25779 | purified cruzain, Z-FR-AMC fluorescence, 0.01% Triton | Potency, µM, inactives show max response, negative = inhibition, hits mostly inhibitors | 200,000 compounds, 0.43% hits;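 further: plate controls were neutral wells for no effect and buffer without enzyme for full effect; nearly all actives have a fitted effect of over 40% in size; top concentration of the series not given in the record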
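Enzyme 1.5 nM, Z-FR-AMC 2 uM, NaOAc 100 mM pH 5.5, DTT 5 mM, Triton X-100 0.01%; 15 min RT compound preincubation; kinetic ex360/em450, 60 s delta.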
SARS PLpro yeast = inhibitors of SARS-CoV papain-like protease in yeast. S. cerevisiae expressing SARS-CoV PLpro, growth rescue; control for the full effect not named in the record. Potency, µM (series often up to 32.9 µM), inactives show at the top dose activity, positive = growth rescue. 330,000 compounds, 0.19% hits. AID 485353; active means well fitted rising curve with a large enough effect; inconclusive means small, poorly fitted or top-dose-only effect; inactive means no such curve, though single readings can be large or run the other way; further: 0% is about no effect; nearly all actives have a fitted effect of over 55% in size; growth read by luminescence after 48 h
Active calls of the source: *; ? = inconclusive; nt = no result given; & = joins results of further samples; ! = not confirmed by another sample; [ ] = another dose, or the depositor's remark. Unless noted, the call rests on the fitted dose curve; in most records, active means well fitted curve in the direction sought with a large enough effect; inconclusive means small, poorly fitted or top-dose-only effect, or another doubt; inactive means no such curve, though single readings can be large; an effect the other way counts as inactive or inconclusive. Potency means the concentration at half of the fitted maximal effect. Only part of the results is shown, so the mix of outcomes need not match the whole.

SMILES | RE007 growth inh | Lassa entry inh | NS1 inh | Cruzain noTriton | StopGo reporter | MARV entry inh | Cruzain inh Det | SARS PLpro yeast
COc1cc(C(c2c(C)[nH][nH]c2=O)c2c(C)[nH][nH]c2=O)ccc1OC(=O)c1ccccc1F | nt | -16%[46.1 µM] | nt | 20% | -8% | 0%[46.1 µM] | -10% | nt
Cc1c(NC(=O)c2cccnc2)c(=O)n(-c2ccccc2)n1C | -4% | 12% | -2% | 7%&-1% | 6%&-13% | 0%&0%&0%&0%&0%&0% | 8.2%&-0.4% | 1%
CC(C(=O)O)c1ccc(C(=O)c2cccs2)cc1 (centres undefined) | 9% | nt | nt | 3% | -21%&0% | nt | -0.4% | nt
CN1CCOC(c2ccccc2)c2ccccc2C1 (centres undefined) | -2%[18.4 µM] | nt | -2% | 10% | -13%&-13% | nt | -1.3% | 5µM*
COc1ccc(CC(=O)NCC(c2cccs2)S(=O)(=O)c2ccc(Cl)cc2)cc1 (centres undefined) | nt | ? | nt | 2% | -13% | nt | 1.1% | nt
CCOC(=O)c1ccc(N)cc1 | -6%[18.4 µM] | nt | nt | 4%&3% | 0%&14% | nt | 0.1%&-1.1% | nt
CC1(C)Cc2c(sc(NC(=S)NC(=O)c3ccccc3)c2C(=O)O)CO1 | 8% | nt | 0% | nt | -11% | nt | nt | -2%
CC(=O)NC(Cc1ccccc1)C(=O)O (centres undefined) | -13% | nt | -11% | 3% | -17% | nt | 6.0% | -3%
Cc1cc(-c2ccccc2)nnc1NCCN1CCOCC1 | -6% | 0% | -5% | -4%&-6%&20% | -20%&1% | 8%&8%&8%&8%&8%&8%&8% | 1.9%&2.3%&1.1% | 3%
CCCCCCO | 3% | nt | nt | -7% | -11% | nt | 2.8% | 11µM*
NC(=O)c1cn(Cc2c(F)cccc2F)nn1 | -7% | 13% | nt | nt | -19% | ? | nt | nt
OC(C#CCN1CCCC1)(c1ccccc1)c1ccccc1 | 5% | 9% | 7% | nt | -12% | -1%&-1% | nt | -1%
CCOC(=O)N1CCc2c(sc3c2c(=O)n(Cc2ccccc2)c(=O)n3CC(=O)Nc2ccc(F)cc2)C1 | nt | 9%[46.1 µM] | nt | -28% | -18% | ? | -1.8% | nt
CC(=O)Nc1ccc(C(=O)O)cc1 | 3% | nt | nt | -2% | -14% | nt | 5.2% | 7%
CCOc1ccc(NC(=O)Cn2cc(C(=O)c3ccco3)c3ccccc32)cc1 | -5% | 2%[46.1 µM] | 0% | 24%&0% | -17%&-5% | 22%[46.1 µM] | -7.1%&-6.6% | -5%[6.58 µM]
COc1ccc(-n2ccn(CC(=O)Nc3ccc(C)c(C)c3)c(=O)c2=O)cc1OC | nt | -11%[46.1 µM] | nt | ? | 8% | nt | -2.6% | nt
CN1CCN(CCC(=O)N2c3ccccc3Sc3ccc(C(F)(F)F)cc32)CC1 | -8% | -8% | 5% | 1% | nt | ? | -1.5% | -9%
CN1CCN(C(c2ccccc2)c2ccccc2)CC1 | -14%[18.4 µM] | nt | nt | -6%&2% | -17%&-3% | nt | 5.5%&4.6% | nt
O=C(CC1N=C2c3ccccc3N=C(SCc3ccc(F)cc3)N2C1=O)NC1CCCCC1 (centres undefined) | nt | -2%[46.1 µM] | nt | -10% | -27% | nt | -5.7% | nt
CC(=O)c1ccc(S(=O)(=O)NC(=O)NC2CCCCC2)cc1 | 1%[18.4 µM] | ? | 1% | -4%&-1%&1% | 17% | 2%&2%&2%&26%&2%&2%&2%&2% | 3.7%&3.6%&-1.9% | nt

7 structures out of the list, ordered by molecular weight, falling.
SMILES | RE007 growth inh | Lassa entry inh | NS1 inh | Cruzain noTriton | StopGo reporter | MARV entry inh | Cruzain inh Det | SARS PLpro yeast
COc1ccc(-n2ccn(CC(=O)Nc3ccc(C)c(C)c3)c(=O)c2=O)cc1OC | nt | -11%[46.1 µM] | nt | ? | 8% | nt | -2.6% | nt
CC(=O)c1ccc(S(=O)(=O)NC(=O)NC2CCCCC2)cc1 | 1%[18.4 µM] | ? | 1% | -4%&-1%&1% | 17% | 2%&2%&2%&26%&2%&2%&2%&2% | 3.7%&3.6%&-1.9% | nt
Cc1cc(-c2ccccc2)nnc1NCCN1CCOCC1 | -6% | 0% | -5% | -4%&-6%&20% | -20%&1% | 8%&8%&8%&8%&8%&8%&8% | 1.9%&2.3%&1.1% | 3%
CN1CCOC(c2ccccc2)c2ccccc2C1 (centres undefined) | -2%[18.4 µM] | nt | -2% | 10% | -13%&-13% | nt | -1.3% | 5µM*
NC(=O)c1cn(Cc2c(F)cccc2F)nn1 | -7% | 13% | nt | nt | -19% | ? | nt | nt
CCOC(=O)c1ccc(N)cc1 | -6%[18.4 µM] | nt | nt | 4%&3% | 0%&14% | nt | 0.1%&-1.1% | nt
CCCCCCO | 3% | nt | nt | -7% | -11% | nt | 2.8% | 11µM*

The list continues.
SMILES | RE007 growth inh | Lassa entry inh | NS1 inh | Cruzain noTriton | StopGo reporter | MARV entry inh | Cruzain inh Det | SARS PLpro yeast
CC12CCC(CC1)C(C)(C)O2 | 1% | nt | nt | -2%&-1% | ? | nt | 4.3%&-0.7% | nt
CCc1nnc(NC(=O)CSc2nc3c([nH]c4ccccc43)c(=O)n2-c2ccc(OC)cc2)s1 | nt | ? | nt | 20% | -12% | nt | -3.9% | nt
CCOCCCNC(=O)C(=O)Nc1c2c(nn1-c1ccc(OC)cc1)CSC2 | nt | -27%[46.1 µM] | nt | ? | -13% | nt | -1.9% | nt
COc1ccc(CNC(=O)C2CCCN(c3nnc(C)c4c(C)n(-c5ccc(C)cc5)nc34)C2)cc1 (centres undefined) | nt | -2%[46.1 µM] | nt | -6% | -5% | nt | -6.7% | nt
Cc1ccc(C)c(NC(=O)Cn2cc(C(=O)c3ccco3)c3ccccc32)c1 | nt | -30%[46.1 µM] | nt | -25% | -25% | -22%[46.1 µM] | -7.9% | nt
COc1ccc(C(=O)CC(=O)c2ccc(C(C)(C)C)cc2)cc1 | 5% | nt | nt | -10% | 0%&-12% | nt | -2.2% | nt
O=C(NCCc1c[nH]c2ccccc12)c1cccnc1 | 3% | nt | -2% | 6% | 14% | nt | 5.4% | -1%
COc1cc2c(c(OC)c1OC)-c1c(cc3c(c1OC)OCO3)[C@@H](OC(C)=O)[C@H](C)[C@H](C)C2 | 10% | nt | ? | nt | ? | nt | nt | -1%
CC(=O)c1ccc2c(c1)N(CCCN(C)C)c1ccccc1S2 | -13% | nt | nt | -9% | -26% | nt | -0.9% | nt
c1ccc(CC2=NCCN2)cc1 | 7%[18.4 µM] | nt | 1% | -2%&-3%&-7% | 2%&-16% | nt | 1.9%&1.4%&-2.2% | 1%
CCCNC(=O)C1CCC(Cn2c(=O)c3sccc3n(CC(=O)NCc3ccccc3)c2=O)CC1 (centres undefined) | nt | 0%[46.1 µM] | nt | 11% | -4% | nt | 0.1% | nt
Cn1c(=O)c2c(ncn2CC2OCCO2)n(C)c1=O | -1% | nt | 0% | 0% | 11% | nt | -1.2% | 0%
CCN1CCN(CCCNC(=O)c2cc3c(s2)-c2c(C)cccc2OC3)CC1 | nt | nt | nt | nt | 0% | 10µM* | -27% | nt
NC(=O)c1cccc(-c2cc(Nc3ccc(OC(F)(F)F)cc3)ncn2)c1 | 2% | nt | -79% | nt | ? | nt | nt | -3%
CCOc1ccccc1C(N)=O | -3% | nt | nt | 1% | -25% | nt | 5.0% | nt
Cc1nc2ccccn2c(=O)c1CCN1CCC(C(=O)c2ccc(F)cc2)CC1 | -8% | -10%&-15% | -2%&-1% | -11%&-7%&-12% | -3%&-11% | 6.3µM*! | -8.6%&-9.1%&-4.1% | -3%
O=C(c1ccc(F)cc1)C1CCN(CCn2c(=O)[nH]c3ccccc3c2=O)CC1 | -23%&5%[18.4 µM] | 0% | ? | 3%&3%&5%&-6% | -14%&-20%&-8%&1% | 11µM* | -5.8%&4.9%&1.2%&-3.6% | -1%&-1%
CCN(CC)CCOC(=O)C1(c2ccccc2)CCCC1 | 0% | 0% | 14% | 5% | nt | -28%&-28% | 4.8% | 10%
O=C(NCc1ccco1)c1ccc2c(c1)N(Cc1cccc(Cl)c1)C(=O)c1ccccc1S2=O (centres undefined) | nt | ? | nt | ? | -5% | nt | -3.8% | nt
CC(COc1ccccc1)NC(C)C(O)c1ccc(O)cc1 (centres undefined) | -4% | 6% | -8% | -7%&-7% | -21%&2% | -1%&-1%&-1%&-1%&-1% | 1.5%&0.7% | -4%
COc1ccc(CCNc2nc(SCc3ccccc3Cl)nc3ccccc23)cc1OC | nt | -1%[46.1 µM] | nt | 3% | -27% | nt | 0.3% | nt
COc1ccccc1N1CCN(CCCNc2cc(=O)n(C)c(=O)n2C)CC1 | -1% | 19% | -12% | -6%&-1%&0%&-5% | -6%&-9%&-11% | ? | -3.0%&4.0%&6.0%&-0.6% | 1%
CCC(C)n1ncn(-c2ccc(N3CCN(c4ccc(OCC5COC(Cn6cncn6)(c6ccc(Cl)cc6Cl)O5)cc4)CC3)cc2)c1=O (centres undefined) | -22% | nt | 0% | -3% | ? | nt | 2.8% | -19%&-7%
CCCn1cnc2c1c(=O)n(CCCCC(C)=O)c(=O)n2C | nt | -3% | -6% | 5% | 3% | ? | -0.7% | nt
CCCCCCCCCCCCCCC[C@H](O)[C@H](N)CO | nt | ? | -1% | 3% | nt | ? | -2.9% | nt
C[C@]12CCC(=O)C=C1CC[C@@H]1[C@@H]2CC[C@@]2(C)[C@H]1CC[C@]2(O)C(=O)CO | 2%[18.4 µM] | -12%&-1% | -3%&-15% | -6%&5% | -28% | ? | 4.7%&4.2% | -3%
